TRPV1 PAM = potentiators of human vanilloid receptor 1 (TRPV1) | TRPV1-expressing cells, Fluo-8 calcium influx, capsaicin EC20 potentiation; host cell line not named in the record; control for the full effect not named in the record | 320,000 tested, 0.02% active | potentiation, % at 8.33 µM; active means potentiation above 80%; inconclusive means 30% to 80%; inactive means below 30%; also: 0% is about no effect
Target sequence (Q8NER1 whole entry, looked up): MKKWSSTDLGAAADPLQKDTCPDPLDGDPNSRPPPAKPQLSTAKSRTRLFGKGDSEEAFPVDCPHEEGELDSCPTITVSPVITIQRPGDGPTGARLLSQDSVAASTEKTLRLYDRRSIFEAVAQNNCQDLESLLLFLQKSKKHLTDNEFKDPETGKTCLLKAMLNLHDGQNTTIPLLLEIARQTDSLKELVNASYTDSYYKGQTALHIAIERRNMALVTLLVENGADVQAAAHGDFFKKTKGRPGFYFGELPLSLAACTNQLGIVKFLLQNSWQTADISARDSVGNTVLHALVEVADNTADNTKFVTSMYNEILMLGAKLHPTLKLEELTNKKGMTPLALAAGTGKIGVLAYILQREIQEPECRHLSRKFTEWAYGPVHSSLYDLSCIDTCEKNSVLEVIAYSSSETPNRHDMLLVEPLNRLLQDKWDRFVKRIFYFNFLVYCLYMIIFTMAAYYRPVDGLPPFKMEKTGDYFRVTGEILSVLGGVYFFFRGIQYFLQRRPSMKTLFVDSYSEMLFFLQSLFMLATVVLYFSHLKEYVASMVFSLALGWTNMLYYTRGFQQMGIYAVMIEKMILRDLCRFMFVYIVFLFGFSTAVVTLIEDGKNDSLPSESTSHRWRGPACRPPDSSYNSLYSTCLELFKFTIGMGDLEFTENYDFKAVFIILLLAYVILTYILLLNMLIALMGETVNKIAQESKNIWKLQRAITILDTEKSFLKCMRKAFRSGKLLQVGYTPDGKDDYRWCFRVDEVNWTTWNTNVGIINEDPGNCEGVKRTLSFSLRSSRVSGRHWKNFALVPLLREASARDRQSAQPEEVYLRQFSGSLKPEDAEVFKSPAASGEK
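TRPV1-expressing cells were cultured overnight at 35.5C and loaded with Fluo-8 calcium dye for 40 to 90 min at room temperature. After a 10 s baseline, compound was added and calcium influx was read kinetically for 3 min (ex 480/em 520 nm).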
TRPML1 inh = inhibitors of human TRPML1 channel; TRPML1-inducible cells, Ca2+ dye fluorescence, FDSS; active compounds read low; inhibition of EC80 agonist-evoked calcium signal; Q9GZU1; activity change, negative = inhibition, % (test concentration not listed); AID 624415; 390,000 tested, 0.02% active; in the data active means activity change below about -50%; inconclusive means about -30% to -50%; inactive means above about -30%;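 also: stimulus is agonist 54-4 at its EC80 concentration; % is scaled to controls: 0 for no effect and ±100 for the full control effect; compound concentration not given in the record; the text of the record puts the active cut at -80%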
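Calcium fluorescence in TRPML1-DL cells induced overnight with Tet: a 110 s read after compound pin addition, then a 110 s antagonist read after challenge with 54-4 at 4 uM final (EC80).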
D2 potentiator = positive allosteric modulators of human D2 dopamine receptor. potentiation, % (concentration not given with the values). 360,000 tested, 0.23% active. DiscoveRx D2 beta-arrestin cells, luminescence, 90 min; 100% = 57 uM dopamine signal. P14416; active = potentiation of 50% or more; inconclusive = 30% to 50%; inactive = 30% or less;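 also: compound concentration not given in the record; tested on top of an EC20 dose of dopamine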
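PathHunter beta-arrestin assay in DiscoveRx D2 cells. Compounds were added with an EC20 of dopamine (50 nM final) for 90 min at 37 deg C. Luminescence was read 1 h after detection reagent, with 57 uM dopamine as the EC100 control.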
Six1-Eya2 blk = inhibitors of human Six1/Eya2 interaction. Q15475+O00167. AlphaScreen GST-Six1/His-Eya2 binding, biochemical; active compounds read low; control for the full effect not named in the record. activity change, % (no concentration beside the values). 360,000 tested, 0.56% active; in the data active = activity change below about -65%; inconclusive = about -30% to -65%; inactive = above about -30%; also: % is scaled to controls: 0 for no effect and ±100 for the full control effect
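Homogeneous AlphaScreen proximity assay pairing GST-Six1 with His-tagged Eya2 (added as 5X mix: 250 nM and 500 nM) in 50 mM Tris pH 8.0, 300 mM NaCl, 1 mM TCEP. Glutathione donor and nickel acceptor beads; 1 h, 37 °C, dark.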
TRPML1 agonist = activates the human TRPML1 channel | Q9GZU1 | TRPML1-expressing cells, Ca2+ dye fluorescence, FDSS; host cell line not named in the record; reference of the full effect not given here | activation, % (no concentration beside the values) | 410,000 tested, 0.12% active | AID 624414; in the data active = activation above about 50%; inconclusive = about 30% to 50%; inactive = below about 30%; also: 0% is about no effect; the text of the record puts the active cut at 80%
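Kinetic FDSS Ca2+ read in Tet-induced TRPML1-DL cells (ABD Ca8 dye plus quencher, 45-90 min RT loading): baseline, then compound, then 110 s agonist window; EC80 agonist 54-4 at 4uM final added afterwards for a 110 s antagonist window.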
CtBP-E1A inh = CtBP/E1A binding inhibition. AlphaScreen GST-E1A/His-CtBP binding, 1536-well; active compounds read low; control for the full effect not named in the record. activity change, % (concentration not given with the values). 340,000 tested, 0.49% active; in the data active means activity change below about -65%; inconclusive means about -30% to -65%; inactive means above about -30%; also: % is scaled to controls: 0 for no effect and ±100 for the full control effect
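GST-E1A and His-tagged CtBP (125 nM each as 5X stock) were preincubated with pin-transferred compound for 2 h at 37 °C in the dark, then glutathione donor and nickel acceptor beads were added for 1 h before AlphaScreen reading.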
* hit, by the source's call; ? = inconclusive; nt = no result given; & = joins results of further samples.

Screens in order: TRPML1 agonist	CtBP-E1A inh	TRPV1 PAM	TRPML1 inh	Six1-Eya2 blk	D2 potentiator
> COC(=O)c1ccc(COc2ncnc3sccc23)cc1
 : -0.6	11	1	-2	0	-1
> O=C(c1cccc(F)c1)N1CCCC(C(=O)N2CCCCC2)C1 (stereo not given)
 : 0.7	nt	-10	38	1	-6
> COc1ccc(C(N)c2csc(Nc3ncccn3)n2)cc1 (stereo not given)
 : -0.7	-83*	nt	nt	-85*	-8
> CCc1ccc2c(c1)NC(=O)C2(C)Cc1ccc(Cl)s1 (stereo not given)
 : -0.4	3	nt	6	1	-11
> O=C(NC1CCCCC1)c1cccc(Cn2cc(Cl)cn2)c1
 : 0.7	3	-4	-20	0	-3
> CC1(C)CC(=O)C=C(NCCc2c[nH]c3ccccc23)C1
 : 0.1	-1	0	2	-1	-11
> O=C(NC1CCCCC1)C1CCCN1C(=O)Nc1ccccc1 (stereo not given)
 : 0.3	5	-8	20	4	4
> O=C1c2ccccc2C(=O)N1CCN1CCCCC1
 : -0.3	3	-2	2	3	-5
> O=C1c2ccccc2C(=O)c2c1cccc2N(CCO)CCO
 : -0.8	?	-1	-4	?	-7
> COC(CNC(=O)c1c[nH]c2ccc(S(=O)(=O)N3CCOCC3)cc2c1=O)OC
 : -0.3	-17	-1	25	1	-4
> Cc1ccc(-c2nc3c4ccccc4ccn3c2Cc2cccc(Cl)c2)cc1
 : 16	9	nt	nt	-5	nt
> O=C(C1CC1)N1N=C2CCCCC2C1(O)C(F)(F)F (stereo not given)
 : 1.3	nt	1	-6	7	-10
> O=C1CCC(c2ccccc2)N1C(=O)c1cccnc1 (stereo not given)
 : 0.3	15	13	-5	5	-4
> Cc1cc(C(=O)N2CCC2(C)C(=O)Nc2cccc3c2CCCC3)nn1C (stereo not given)
 : -0.8	5	nt	nt	1	-2
> Cc1nn(C)c(C(=O)NC(=S)Nc2ccc([N+](=O)[O-])cc2)c1Cl
 : 1.1	0	4	59	15	-7
> COc1ccc2c(c1)C(NC(=O)C(F)(F)F)CC2=O (stereo not given)
 : -0.2	5	-33	4	5	-9
> Cc1onc(-c2ccccc2Cl)c1C(=O)Nc1cccnc1
 : 0.1	7	-5	-4	-2	-11
> O=[N+]([O-])c1cccnc1N1CCN(c2ccc(F)cc2)CC1
 : -1.7	?	-7	-3	0	-14
> N#Cc1ccccc1OCC(=O)NNC(=O)CNC(=O)c1ccc(Br)o1
 : 1.3	0	nt	14	0	-19
> COc1ccc(OC)c(NC(=O)CSc2nnc(Cc3cccn3C)n2-c2ccc(F)cc2)c1
 : 1.2	-14	24	0	-28	-6
> Cc1ccc(-c2cc(C(=O)NCC3CCCO3)c3ccccc3n2)cc1C (stereo not given)
 : -0.4	1	-25	7	5	1
> COc1cccc2[nH]c3c(N4CCc5ccccc5C4)ncnc3c12
 : 1.0	-6	2	-2	-2	-15
> COc1ccccc1NS(=O)(=O)CC12CCC(CC1=O)C2(C)C (stereo not given)
 : 0.2	9	-13	-6	0	1
> Cc1ccccc1N=C1NC(=O)CS1
 : -0.4	4	-1	4	-1	5
> C=CCOc1ccc(C2C(C(=O)c3ccco3)=C(O)C(=O)N2Cc2cccnc2)cc1 (stereo not given)
 : 2.1	4	?	2	-2	8
> Cc1ccc(OCC(=O)Nc2ccc(F)cc2)cc1C
 : -0.2	14	-13	-4	1	-3
> Cc1ccc(OC(C)C(=O)N/N=C/c2ccccn2)cc1 (stereo not given)
 : 1.3	-23	11	-7	-1	-4
> Cc1ccc(NC(=O)COC(=O)/C(=C/c2cccs2)c2cccs2)cc1S(=O)(=O)N(C)C
 : 0.7	14	26	-9	-8	6
> Cc1ccc(S(=O)(=O)N2CCCCC2)cc1NC(=O)Nc1ccc(Cl)cc1Cl
 : 1.9	nt	18	-11	3	-7
> Cc1onc(-c2ccccc2Cl)c1-c1nc(-c2ccccn2)no1
 : 0.6	-2	-15	16	5	-14

Retrieved by structure from the entries so far, 4 records:
Screens in order: TRPML1 agonist	CtBP-E1A inh	TRPV1 PAM	TRPML1 inh	Six1-Eya2 blk	D2 potentiator
> O=C(NC1CCCCC1)C1CCCN1C(=O)Nc1ccccc1 (stereo not given)
 : 0.3	5	-8	20	4	4
> COc1cccc2[nH]c3c(N4CCc5ccccc5C4)ncnc3c12
 : 1.0	-6	2	-2	-2	-15
> Cc1ccc(-c2cc(C(=O)NCC3CCCO3)c3ccccc3n2)cc1C (stereo not given)
 : -0.4	1	-25	7	5	1
> COC(CNC(=O)c1c[nH]c2ccc(S(=O)(=O)N3CCOCC3)cc2c1=O)OC
 : -0.3	-17	-1	25	1	-4

Continued.
Screens in order: TRPML1 agonist	CtBP-E1A inh	TRPV1 PAM	TRPML1 inh	Six1-Eya2 blk	D2 potentiator
> O=[N+]([O-])c1cc(S(=O)(=O)N2CCCCC2)ccc1NCCN1CCOCC1
 : -0.6	1	-4	-10	2	-19
> O=C(Nc1cccnc1Cl)c1ccc(Cl)cc1
 : -0.3	-5	1	-1	1	-5
> COc1ccc(-c2nnc3ccc(SCC(=O)N4CCCC4)nn23)cc1
 : -0.6	-4	-6	20	-18	-4
> C=CCn1c(/N=C/c2ccc(OC)cc2)nc2ccccc21
 : -0.6	5	5	-11	0	-6
> CCN(CC(=O)Nc1ccc(NC(C)=O)cc1)C(=O)CCCSc1nc2ccccc2[nH]1
 : -0.3	-4	-1	-19	-1	-1
> FC(F)(F)c1cnc(-c2cnc3c(-c4ccc(Cl)cc4)cnn3c2)c(Cl)c1
 : 0.1	5	-6	-21	6	-22
> COc1ccc(CC(=O)NCCS(=O)(=O)N2CCN(c3ccccc3)CC2)cc1
 : 1.5	4	7	9	-5	-1
> COc1cccc(C(=O)Nc2nc(SCc3ccc(Cl)cc3)n[nH]2)c1
 : 1.0	11	-12	-3	1	1
> O=C(c1ccc(N2C(=O)C3CC=C(Cl)CC3C2=O)cc1)N1CCCCC1 (stereo not given)
 : 1.3	-6	-5	21	4	5
> CCOc1ccc2oc(C(=O)NCC3CCCO3)c(C)c2c1 (stereo not given)
 : -0.4	6	-8	2	-3	4
> CC1=NNC(=O)C1C(c1ccc(F)cc1)C(C#N)C#N (stereo not given)
 : 0.0	-1	nt	-18	2	-9
> CN(Cc1cc(=O)n2ccsc2n1)c1ccccc1
 : 0.3	nt	-1	-11	2	-5
> COc1ccc(-n2c(=O)c3ccccc3n(CC(=O)NCc3ccco3)c2=O)cc1
 : 1.4	-4	12	12	-25	-2
> Cc1ccc(CN(C(=O)N2CCN(C)CC2)S(=O)(=O)c2ccc(C)cc2)cc1
 : 0.3	0	-2	15	0	-1
> O=C(NCc1ccccc1)c1ccc(=O)[nH]n1
 : -0.2	-1	3	53	11	-3
> COc1ccc2c(CC(=O)OCC(=O)Nc3cccc(C)c3)coc2c1
 : -0.4	5	-1	2	-11	0
> Cc1ccc([C@H]2C(C(=O)O)=CC[C@@H](c3cccs3)N2S(=O)(=O)c2ccc(C)cc2)cc1
 : 0.0	-19	nt	-4	3	nt
> O=C(c1ccc(Cl)c(S(=O)(=O)N2CCOCC2)c1)N1CCCCCC1
 : 0.1	-2	4	12	-10	1
> CCN(CC)CCNC(=O)c1ccc(NC(=O)Cc2ccccc2F)cc1
 : -0.2	-15	3	5	-1	-5
> Cc1c(C(=O)NCc2ccc3c(c2)OCO3)sc(=O)n1Cc1ccc(S(=O)(=O)N(C)C)cc1
 : 2.6	0	nt	nt	2	0
> CC(NC(=O)C1CCC(C(=O)NC(C)c2ccccc2)CC1)c1ccccc1 (stereo not given)
 : 0.6	6	26	-5	7	0
> C#CCO[C@@H]1C[C@H](n2cnc3c(NC(=O)c4ccccc4)ncnc32)O[C@@H]1CO
 : -0.2	6	-11	-4	2	2
> COc1ccccc1-c1nnc(NC(=O)c2ccc(S(=O)(=O)N3CCOCC3)cc2)o1
 : 0.1	-14	6	6	-23	-3
> CC(C)OC(=O)CC(=O)CSc1nc2c(cc1C#N)CCCCCC2
 : 0.3	0	2	0	8	2
> Cc1cccc(C)c1NC(=O)c1ccc2sc([C@@H]3O[C@H](CO)[C@H](O)[C@H](O)[C@H]3O)nc2c1
 : -0.5	-4	nt	nt	-4	-12
> CC(C)(C)n1nnnc1C(c1cccs1)N(Cc1cccnc1)CC1CCCO1 (stereo not given)
 : -1.0	4	-28	1	0	-7
> O=C(CCCC(=O)N(c1ccc2c(c1)OCCO2)C(C(=O)NC1CCCCC1)c1ccc(F)cc1)Nc1ccccn1 (stereo not given)
 : 0.9	-2	-21	-5	1	-7
> c1ccc(-c2cc(-c3ccccc3)on2)cc1
 : nt	19	-3	nt	10	-2
> COc1ccc2c(c1)cc(C)c1nnc(SCC(=O)N3CCN(C(=O)c4ccco4)CC3)n12
 : 0.2	-9	4	3	-7	2
> OC[C@@H]1CN(Cc2ccc3c(c2)OCO3)C[C@H](n2cnc3c(NC4CC4)ncnc32)O1
 : -0.1	-13	nt	nt	8	-3
> O=C(NCC1CCCO1)c1ccc2c(c1)N(Cc1ccc(F)cc1)CCS2 (stereo not given)
 : 0.2	nt	2	-10	-4	-5
> CN(Cc1ccccc1)S(=O)(=O)c1nnc(NC(=O)c2ccccc2)s1
 : -1.0&1.7	2	11	1&7	0	-6
> CCOc1ccccc1NC(=O)C1Cc2ccccc2CN1S(C)(=O)=O (stereo not given)
 : 2.1	0	6	-4	-3	14
> O=C(COC(=O)c1ccccc1Br)NCC1CCCO1 (stereo not given)
 : 4.7	-6	nt	-17	0	-2
> CSc1cccc(NC(=O)c2nnn(Cc3ccccc3)c2N)c1
 : 7.3	-1	?	5	-1	-1
> CC1=C(c2ccccc2)SC2=NCCN21
 : 3.1	-21	-12	7	-5	-11
> COc1cc2c3nnc(-c4ccc(F)cc4)c-3cn(Cc3ccccc3)c2cc1OC
 : -1.0	-3	-2	3	-6	7
> O=C(NCCCc1ccccc1)c1ccc(CS(=O)Cc2ccc(Cl)cc2)o1 (stereo not given)
 : 8.0	nt	5	29	4	-1
> Cn1c(=O)c2c(nc(CN3CCN(CCO)CC3)n2Cc2cccc3ccccc23)n(C)c1=O
 : 0.4	-3	-6	-12	-2	-10
> CN(C)CCCN(C(=O)c1ccc(Cl)s1)c1nc2cc3c(cc2s1)OCO3
 : -0.1	-14	2	5	-10	-48
> COc1ccc(OCC(=O)NNC(=O)Cc2coc3cc(OC)ccc23)cc1
 : 0.2	-17	5	-1	1	-15
> O=C1c2ccccc2C(=O)N1CCCCc1cn(C[C@H]2CC[C@H](Cn3cc(CCCCN4C(=O)c5ccccc5C4=O)nn3)O2)nn1
 : -0.4	0	nt	13	-5	7
> COc1ccccc1N1CCN(c2cc(=O)n(-c3ccccc3Cl)c(=O)[nH]2)CC1
 : 0.9	4	-2	-6	2	-3
> Cc1nc(N2CCC(C(N)=O)CC2)c2nnn(Cc3ccccc3)c2n1
 : 0.0	3	0	8	-1	3
> COc1ccccc1-c1nn(Cc2ccccc2)cc1C(=O)N1CCN(c2ncccn2)CC1
 : -0.3	4	-8	-2	3	-22
> Cc1n[nH]c(=S)n1/N=C/c1ccc(-c2ccccc2[N+](=O)[O-])o1
 : 1.9	-4	-15	17	-8	-14
> Cc1ccc(C)c(NC(=O)C2C(c3ccccc3)C2(Cl)Cl)c1 (stereo not given)
 : 2.7	6	-15	-13	6	-5
> Cc1ccc(Nc2ncccc2C(=O)O)cc1C
 : -0.9	8	-10	49	1	-10

Bioassay records deposited in PubChem by National Center for Advancing Translational Sciences (NCATS).
